Vif-A3G inh: blocks the Vif interaction with human APOBEC3G | Q9HC16 | HeLa A3G-eYFP + Vif (tagged APOBEC3G with the HIV-1 protein that degrades it), YFP fluorescence, overnight | Potency, µM (top dose mostly 46.1 µM), for inactives: at the top dose activity, negative = active, most hits filed as inhibitors | 410,000 compounds, 0.076% hits | AID 602310;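 further: potency means the concentration at half of the fitted maximal effect; on the % scale 0 is the no-effect control and ±100 the full control effect; nearly all actives have a fitted effect of over 60% in size; hits raise eYFP signal because A3G escapes Vif-driven loss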
Target sequence (Q9HC16 whole entry, looked up): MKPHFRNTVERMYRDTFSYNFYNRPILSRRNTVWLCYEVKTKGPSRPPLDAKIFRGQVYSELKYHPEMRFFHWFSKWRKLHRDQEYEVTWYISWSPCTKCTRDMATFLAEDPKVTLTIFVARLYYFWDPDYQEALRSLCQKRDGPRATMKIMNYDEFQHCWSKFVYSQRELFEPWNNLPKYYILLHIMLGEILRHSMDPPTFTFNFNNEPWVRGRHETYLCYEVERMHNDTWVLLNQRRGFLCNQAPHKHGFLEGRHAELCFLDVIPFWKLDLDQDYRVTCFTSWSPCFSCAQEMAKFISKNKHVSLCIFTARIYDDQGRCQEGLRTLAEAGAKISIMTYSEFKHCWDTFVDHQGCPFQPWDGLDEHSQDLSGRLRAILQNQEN
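Read-out is eYFP fluorescence (Ex 488/Em 500-530) from Vif-expressing HeLa A3G-eYFP cells; more signal means A3G escaped Vif-mediated degradation. Cells plated overnight, compound pinned in, incubated overnight at 37 deg C.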
D1 antag: blocks dopamine activation of the human D1 receptor. HEK293 TREx D1 cells, calcium flux, dopamine EC80; stronger effect = lower value. activity change, negative = inhibition, % at 10 µM. 360,000 compounds, 3.2% hits. AID 504652; in the data active means activity change below about -30%; further: on the % scale 0 is the no-effect control and ±100 the full control effect
Target sequence (P21728 whole entry, looked up): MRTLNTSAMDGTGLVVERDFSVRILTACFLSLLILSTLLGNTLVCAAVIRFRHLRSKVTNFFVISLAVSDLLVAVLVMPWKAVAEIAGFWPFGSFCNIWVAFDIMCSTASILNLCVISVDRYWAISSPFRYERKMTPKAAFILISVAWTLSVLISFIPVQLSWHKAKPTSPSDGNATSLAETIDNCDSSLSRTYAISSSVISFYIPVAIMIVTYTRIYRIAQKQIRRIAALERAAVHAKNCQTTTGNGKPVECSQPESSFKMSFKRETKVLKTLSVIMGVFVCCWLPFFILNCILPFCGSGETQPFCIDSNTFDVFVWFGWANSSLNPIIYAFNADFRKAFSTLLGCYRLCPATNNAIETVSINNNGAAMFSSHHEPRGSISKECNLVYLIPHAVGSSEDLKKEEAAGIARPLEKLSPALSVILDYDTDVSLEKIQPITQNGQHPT
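Calcium flux readout: force-coupled, inducible Hek293 Trex D1 line, cells induced overnight at 30 C with tetracycline, dye-loaded 30–90 min at RT. Antagonism scored against EC80 dopamine challenge given 180 s after compound.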
D1 potentiator: enhances dopamine response at the human D1 receptor; P21728; HEK293 TREx D1 cells, calcium flux, dopamine EC20 potentiation; potentiation, % at 10 µM; 360,000 compounds, 0.036% hits; in the data active means potentiation above about 30%; further: 0% is about no effect
GRP78 ERSR act: ER stress response induction in glioma | Potency, µM, without a hit: at the top dose activation, most hits filed as activators | U87-MG GRP78 promoter luciferase reporter, 16 h | 420,000 compounds, 0.02% hits; further: potency means the concentration at half of the fitted maximal effect; series mostly up to about 76 µM; % of control where 0% means no effect; nearly all actives have a fitted effect of over 35% in size
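Stably transfected U87-MG human glioma cells carrying a GRP78-based luminescent sensor were seeded at 1000 cells/well, pin-dosed with compounds and incubated 16 h. Luciferase reagent was then added, and end-point luminescence was read after 10 min at room temperature.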
D1 agonist: agonists of human D1 dopamine receptor | AID 504660 | HEK293 T-REx D1 cells, calcium flux, agonist mode | P21728 | 360,000 compounds, 1% hits | activation, % at 2 µM; in the data active means activation above about 30%; further: 0% is about no effect
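Agonism was scored from calcium flux recorded over 180 s (1 read/s) after pintool compound addition, following a 10-cycle baseline. Cells were inducible force-coupled HEK293 TREx D1, plated overnight at 30 C and loaded with no-wash calcium dye.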
Vif-APOBEC3F blk: Vif-A3F binding inhibition. AID 602313. 390,000 compounds, 0.2% hits. Potency, µM (titrated, usually from 46.1 µM), for inactives: at the top dose activity, negative = active. HeLa A3F-eYFP + Vif (tagged APOBEC3F with the HIV-1 protein that degrades it), YFP fluorescence increase; further: potency means the concentration at half of the fitted maximal effect; % of control where 0% means no effect; nearly all actives have a fitted effect of over 65% in size
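HeLa cells stably expressing Vif plus C-terminally eYFP-tagged A3F were seeded, incubated overnight at 37 deg C, dosed with compound, incubated overnight again at 37 deg C. Yellow fluorescence (Ex 488/Em 500-530) reported blocked Vif-mediated A3F-eYFP degradation.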
D2 potentiator: positive allosteric modulators of human D2 dopamine receptor. potentiation, % at 10 µM. P14416. AID 485347. 340,000 compounds, 0.34% hits. HEK293 T-REx D2, calcium flux, EC20 dopamine potentiation;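 active means potentiation over 3 SD above the plate norm, cut at about 30% in these data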; further: 0% is about no effect
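Tetracycline-induced Hek293 Trex D2 cells, force-coupled to calcium, loaded with no-wash calcium dye. Compound added with 180 s kinetic read for agonism, then EC20 dopamine and a further 180 s read for potentiation.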
LDHA block: inhibitors of human lactate dehydrogenase A; activity change, % (values are at about 110 or 230 µM); purified LDHA, NADH/diaphorase-resazurin fluorescence; stronger effect = lower value; 480,000 compounds, 0.15% hits; in the data active means activity change below about -30%; inconclusive means mostly about -25% to -30%;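 further: plate controls were DMSO wells for no effect and wells without enzyme for full effect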
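Remaining NADH was detected by diaphorase (0.133 mg/mL) converting 37 µM resazurin to fluorescent resorufin, read at 0 and 20 minutes. The preceding 5-minute room-temperature reaction used 2 nM LDHA, 0.2 mM sodium pyruvate and 0.06 mM NADH at pH 7.4.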
Numbers without * were called inactive; ? = inconclusive; . = not tested or not shown; & = joins results of further samples. Unless noted, the call rests on the fitted dose curve; in most records, active means well fitted curve in the direction sought with a large enough effect; inconclusive means small, poorly fitted or top-dose-only effect, or another doubt; inactive means no such curve, though single readings can be large; an effect the other way counts as inactive or inconclusive. These rows are one share of the data, so the mix of outcomes need not match the whole.

mol	Vif-A3G inh	D1 antag	D1 potentiator	GRP78 ERSR act	D1 agonist	Vif-APOBEC3F blk	D2 potentiator	LDHA block
COc1cc(NC(=O)CSc2nnc(C)n3c2cc2oc(C)cc23)cc(OC)c1	2.7%	-23.3	-2.8	-3.3%	-1.1	0.5%	2.5	-7.2
C=CCn1c(SCC(N)=O)nc2scc(-c3ccc(C)o3)c2c1=O	-2.8%	-1.7	7.9	2.3%	0.9	1.9%	22.9	-1.5
CCOC(=O)c1c(NC(=O)Cn2nnc3ccccc32)sc2c1CCC(C)C2 (centres undefined)	-0.6%	6.7	-2.6	-2.8%	4.6	1.0%	2.2	0.5
CC(C)c1ccc(NC(=O)Cn2cc(S(=O)(=O)Cc3ccccc3Cl)c3ccccc32)cc1	-3.1%	10.3	5.4	-3.2%	4.3	1.4%	-8.6	-21.3
COc1cccc(-c2csc(NNC(=O)c3cccs3)n2)c1	0.1%	-1.0	0.8	-5.1%	5.7	-4.8%	5.2	-0.8
CCc1nnc(NC(=O)CSc2nnc3nc(C)cc(C)n23)s1	7.9%	5.5	2.3	-0.8%	2.4	-4.3%	18.5	2.2
Cc1cc(SCC(=O)NC2CCCC2)nc2ccccc12	0.5%	3.8	-7.5	-3.1%	4.4	-7.7%	-1.1	-2.3&2.9
CC(=O)NCCNc1nc2c(-c3ccc(C)cc3)nnn2c2ccccc12	4.2%	-2.2	-4.2	-0.9%	5.1	-1.5%	-7.7	3.5
CCOC(=O)c1c(NC(=O)COc2ccc(C)cc2C(C)(C)C)sc2c1CCC(C)C2 (centres undefined)	-4.3%	5.1	3.0	1.9%	-0.6	-0.1%	-3.1	-9.7
CCc1nnc(NC(=O)CSc2ccc(-c3ccccc3OC)nn2)s1	2.3%	-7.5	2.9	6.2%	0.3	-25.7%	6.4	-2.6
Cc1nc(Oc2ccccc2C)c2oc3ccccc3c2n1	-13.4%	-10.9	2.4	-4.1%	3.5	-7.8%	9.5	-3.7
CCN(CC)c1ccc(C(=O)OCC(=O)c2ccco2)cc1	0.7%	21.2	19.1	8.9%	2.3	-4.9%	2.3	-2.9
Cc1ccc(NC(=O)Cn2c(=O)n(Cc3ccco3)c(=O)c3sc4ccccc4c32)cc1C	-16.6%	-5.6	-1.3	-1.3%	6.6	-18.1%	1.0	-1.6
O=C(OCC(=O)c1ccco1)c1ccc2ncsc2c1	-0.6%	-7.7	-0.4	-4.7%	4.1	-2.5%	21.0	-6.1
O=C(CSc1ncnc2c1sc1ccccc12)Nc1ccc(Br)cc1	0.8%	0.7	-4.5	2.6%	2.0	-8.8%	-16.3	0.6
Cc1ccccc1C(=O)Nc1nc2c(C)csc2c(=O)s1	-1.9%	5.2	2.5	-6.2%	2.5	-2.2%	2.7	-17.3
Cn1c(N)c(C(=O)CSc2nc3ccccc3c(=O)n2Cc2ccccc2)c(=O)n(C)c1=O	-1.2%	1.7	-4.6	3.0%	2.4	-10.1%	5.2	-14.1
O=C(CSc1ncnc2sc3c(c12)CCC3)NCC1CCCO1 (centres undefined)	-8.6%	-5.7	3.4	1.5%	3.1	1.5%	-3.1	-0.8
S=c1nc[nH]c2c1cnn2-c1ccccc1	-1.0%	-16.5	2.5	-0.8%	2.2	-2.7%	-2.0	-8.5
O=C1C(=O)N(c2nccs2)C(c2ccccc2F)/C1=C(\O)c1ccc2c(c1)OCCO2 (centres undefined)	1.6%	-15.1	-2.5	-3.9%	1.2	8.6%	-2.4	-2.4
CCOC(=O)N1CCN(Cc2cc(=O)oc3ccc(Cl)cc23)CC1	0.2%	7.6	-4.3	-0.7%	2.2	-4.7%	5.2	-9.1&-4.5
COc1cc2[nH]c(=S)n(Cc3ccc(F)cc3)c(=O)c2cc1OC	0.4%	-7.4	-9.2	-2.7%	1.2	7.2%	-1.5	-1.8
Cn1c(N)c(C(=O)COc2ccc(C#N)cc2)c(=O)n(C)c1=O	0.1%	-7.8	1.8	-5.9%	3.9	6.1%	-3.2	-5.5
Cn1c(-c2ccc3c(c2)OCO3)cnc1NCc1ccc(Cl)cc1	0.5%	0.7	-2.6	-4.8%	4.5	0.3%	-15.4	-16.3
Cc1oc(-c2ccccc2Cl)nc1CSc1nncn2c1cc1occc12	0.1%	-1.3	-3.5	-3.3%	-0.5	-1.4%	-11.4	3.1
Cn1c(=O)c2c(SCC(=O)NCC3CCCO3)nc(-c3ccccc3F)nc2n(C)c1=O (centres undefined)	2.3%	-1.0	0.7	-4.7%	-0.2	-6.0%	-9.6	-1.8
CCC(=O)c1ccc(OCCN2CCOCC2)cc1	2.2%	2.8	-5.9	4.8%	2.0	0.6%	.	-9.0
CCc1cccc(C)c1NC(=O)c1cc(S(=O)(=O)N(C)Cc2ccccc2)ccc1F	-0.7%	-8.3	-0.6	-1.9%	4.1	3.1%	-10.2	-4.3
CCC(CC)NC(=O)COC(=O)c1ccc(NS(=O)(=O)c2ccc3c(c2)OCCO3)cc1	-1.0%	-2.8	-2.9	-3.5%	11.4	-9.2%	-7.9	-2.7
CCc1ccc(NC(=O)CSc2nc3ccccc3nc2Cc2ccc(C)cc2)cc1	-7.1%	5.8	-1.8	-0.3%	-0.3	-2.3%	5.3	-4.3
COc1ccccc1NC(=O)C(C)OC(=O)/C(=C/c1ccccc1)NC(C)=O (centres undefined)	-7.4%	-2.5	2.4	-3.3%	9.9	1.1%	7.9	-2.8
Cc1ccc(OCC(=O)Nc2ccc(OCc3cc(=O)n4ccsc4n3)cc2)cc1	-0.2%	2.8	0.8	-1.4%	143.9*	-13.9%	-1.3	2.5
CCc1cc2c(cc3c(=O)n(CC(=O)NCCc4ccccc4)ncn32)s1	0.3%	11.8	-3.6	-1.4%	-1.1	-0.2%	-16.8	-14.5
Cc1nc2nc(SCC(=O)O)nn2c(C)c1Cc1c(F)cccc1Cl	0.2%&3.6%	12.1&-11.0	1.6&0.3	-5.5%&2.3%	0.6&0.4	9.6%&2.4%	-2.2&-8.6	0.2&1.1
COc1ccc(-c2nnc(SCC(=O)Nc3ccc(C)c(C)c3)s2)cc1	0.2%	7.8	-2.4	-1.5%	0.2	-2.2%	-9.9	-7.5
CCOC(=O)N1CCN(C(=S)NC2CCCCC2)CC1	-3.4%	4.1	-13.2	-1.4%	0.8	0.2%	8.6	-1.8

Ten neighbouring entries out of the list so far, for reference:
mol	Vif-A3G inh	D1 antag	D1 potentiator	GRP78 ERSR act	D1 agonist	Vif-APOBEC3F blk	D2 potentiator	LDHA block
Cc1ccccc1C(=O)Nc1nc2c(C)csc2c(=O)s1	-1.9%	5.2	2.5	-6.2%	2.5	-2.2%	2.7	-17.3
Cn1c(N)c(C(=O)CSc2nc3ccccc3c(=O)n2Cc2ccccc2)c(=O)n(C)c1=O	-1.2%	1.7	-4.6	3.0%	2.4	-10.1%	5.2	-14.1
O=C(CSc1ncnc2sc3c(c12)CCC3)NCC1CCCO1 (centres undefined)	-8.6%	-5.7	3.4	1.5%	3.1	1.5%	-3.1	-0.8
S=c1nc[nH]c2c1cnn2-c1ccccc1	-1.0%	-16.5	2.5	-0.8%	2.2	-2.7%	-2.0	-8.5
O=C1C(=O)N(c2nccs2)C(c2ccccc2F)/C1=C(\O)c1ccc2c(c1)OCCO2 (centres undefined)	1.6%	-15.1	-2.5	-3.9%	1.2	8.6%	-2.4	-2.4
CCOC(=O)N1CCN(Cc2cc(=O)oc3ccc(Cl)cc23)CC1	0.2%	7.6	-4.3	-0.7%	2.2	-4.7%	5.2	-9.1&-4.5
COc1cc2[nH]c(=S)n(Cc3ccc(F)cc3)c(=O)c2cc1OC	0.4%	-7.4	-9.2	-2.7%	1.2	7.2%	-1.5	-1.8
Cn1c(N)c(C(=O)COc2ccc(C#N)cc2)c(=O)n(C)c1=O	0.1%	-7.8	1.8	-5.9%	3.9	6.1%	-3.2	-5.5
Cn1c(-c2ccc3c(c2)OCO3)cnc1NCc1ccc(Cl)cc1	0.5%	0.7	-2.6	-4.8%	4.5	0.3%	-15.4	-16.3
Cc1oc(-c2ccccc2Cl)nc1CSc1nncn2c1cc1occc12	0.1%	-1.3	-3.5	-3.3%	-0.5	-1.4%	-11.4	3.1

Later entries
mol	Vif-A3G inh	D1 antag	D1 potentiator	GRP78 ERSR act	D1 agonist	Vif-APOBEC3F blk	D2 potentiator	LDHA block
COc1ccc(OC)c(-n2c(-c3cc(-c4ccc(F)cc4)n[nH]3)n[nH]c2=S)c1	?	-1.2	-0.5	0.4%	1.4	0.0%	-8.0	-10.7
CCOc1ccc(CCNC(=O)c2ccc(Cn3c(=O)c4cccn4c4cccnc43)cc2)cc1	?	-4.5	-3.5	-0.9%	8.0	?	-0.2	-3.8
CCc1nn2c(-c3ccccc3OC)ccnc2c1-c1ccccc1	-5.4%	-5.9	-4.7	-0.3%	3.9	-0.5%	4.9	2.4
CCc1cccc(NC(=O)c2nc(-c3ccncc3)no2)c1	1.0%	-2.1	-2.8	-1.1%	4.5	1.9%	8.1	-0.2
COc1cc(S(=O)(=O)NCc2ccc3c(c2)OCO3)c(OC)cc1C	2.5%	-0.9	-1.8	-1.8%	0.9	-0.7%	1.5	-0.7
COc1cccc2cc(C(=O)CS(=O)(=O)c3ccc(C(C)(C)C)cc3)c(=O)oc12	-3.8%	-4.0	1.8	-4.7%	3.0	-3.6%	0.2	2.6
CCOC(=O)C(CCSC)NC(=O)CN (centres undefined)	-0.1%	4.3	8.8	-3.2%	1.5	2.4%	-5.9	-3.9
Cn1c(SCc2cccc(F)c2)nnc1-c1ccncc1	3.1%	-14.9	0.3	-1.5%	-0.2	-3.0%	-3.8	-3.5
Cc1ccc(C)c(NC(=O)CSc2nnc(C)n3c2cc2occc23)c1	-2.7%	12.4	-2.2	-2.0%	0.2	-8.4%	-1.5	-6.0
